Bioassay records as filed in PubChem.
Mtb bLac sens: beta-lactam sensitization of Mtb H37Rv, H37Rv | inhibition, % at 25 µM | 330,000 tested, 0.27% active | AID 434955, 2010 | M. tuberculosis H37Rv growth with meropenem, percent inhibition; hits of this screen are not shown here;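 active = about 74% or more and at least 40 points above the plate without the antibiotic, then above 30% in a dose series; inconclusive = first-round hits that could not be retested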;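 note: growth measured after seven days incubation then overnight dye step; 0% = bacteria only wells and 100% = bacteria with antibiotic; twin plates without the antibiotic show which effects depend on it; some results filed as inactive read as strong as hits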
Numbers without * were called inactive; ? = inconclusive.

SMILES | Mtb bLac sens
Cn1nc(C(=O)OCC(=O)Nc2ccc(C(N)=O)cc2)c2ccccc2c1=O | -5
COc1ccc(CCC(=O)N2CCN(S(=O)(=O)c3cccc(C(F)(F)F)c3)CC2)cc1OC | 2
CCn1cc(CN2CCC(n3nccc3NC(=O)c3cccc(F)c3)CC2)cn1 | ?
CCOC(=O)C1CCN(C(=O)COC(=O)C23CC4CC(CC(C4)C2)C3)CC1 | 3
Cc1cccc(C)c1OCC(=O)NNC(=O)CCCn1c(=O)oc2ccccc21 | 4
COc1ccc([C@H]2CC(=O)C=C(c3ccc(OC)cc3OC)C2)cc1 | 75
Cc1ccc2c(c1)C1CN(C)CCC1N2S(=O)(=O)c1ccccc1F (stereo not given) | -6
COc1ccc(CNC(=O)COC(=O)c2ccc(S(=O)(=O)N3CCOCC3)cc2)cc1 | 1
CC(C)Oc1ccc(C(=O)NN2C(=O)NC3(CCCCC3)C2=O)cc1 | 1
Cc1cnc(C(=O)OCC(=O)c2c[nH]c3ccccc23)cn1 | -5
CC(C)Cn1c(SC(C)C(=O)NC2CC2)nnc1-c1ccccc1F (stereo not given) | 0
O=C(NC1CCN(C(=O)Nc2ccc(F)cc2)CC1)c1cccc(F)c1 | -11
O=C(COC(=O)c1c(F)cccc1Cl)NC1CCCC1 | -11
Cc1cccc(C(=O)N[C@H](C(=O)Nc2ccc3c(c2)OCO3)C(C)C)c1 | -1
CCCc1cc(=O)n2[nH]c(NC(=O)c3ccco3)nc2n1 | -4
CCN(CC)S(=O)(=O)c1ccc(C(=O)Nc2cc(S(=O)(=O)N3CCOCC3)ccc2O)cc1 | 3
O=C(CSc1nc2c(cnn2-c2ccccc2)c(=O)[nH]1)NCC1CCCO1 (stereo not given) | -1
COC(=O)C1=C(c2ccccc2)C[C@@H]2CC[C@H]1N2C | 5
COc1ccc2c(c1OC)CN1CCc3cc4c(cc3[C@H]1C2)OCO4 | 4
O=C(COC(=O)COc1ccc(Br)cc1)NNC(=O)c1ccccc1 | 0
Cc1cc(C)cc(NC(=O)C(OC(=O)c2cc[n+]([O-])cc2)c2ccccc2)c1 (stereo not given) | 0
C[C@H](CO)N1C[C@H](C)[C@@H](CN(C)S(=O)(=O)c2cn(C)cn2)Oc2ccc(NC(=O)Nc3ccccc3)cc2C1=O | 0
Cc1csc(=O)n1CC(=O)Nc1ccc(Cl)c(Cl)c1 | -1
CCc1csc(CNC(=O)C2CCC(=O)N(Cc3cccc(F)c3)C2)n1 (stereo not given) | 5
BrCCc1ccccc1 | 3
Cc1cccc(NC(=O)CN(C)C(=O)c2ccc(N3CCCCCC3)c([N+](=O)[O-])c2)c1C | 5
C=CC[C@@H](CC(=O)N(CCO)Cc1ccccc1)C(=O)N[C@@H](COC(=O)[C@@H](CC=C)CC(=O)OC(C)(C)C)Cc1c[nH]c2ccccc12 | -5
Cn1c(CCC(=O)O)nc2cc(S(=O)(=O)N3CCCC3)ccc21 | -5
O=C(NCC(=O)N1CCOCC1)c1ccc(Cl)c(Cl)c1 | -6
CCN(C[C@H]1N[C@@](Cc2ccccc2)(C(=O)OC)[C@H]2C(=O)N(Cc3ccccc3)C(=O)[C@@H]12)S(=O)(=O)c1ccc(-c2ccccc2)cc1 | -10
COc1ccccc1NS(=O)(=O)c1ccc2oc(SC(C)C(=O)N3CCNC3=O)nc2c1 (stereo not given) | -1
COc1ccc(NC(=O)COC(=O)c2cc3c(s2)CCC3)cc1 | 6
Cc1cc(=O)oc2cc(OC(C)C(=O)Nc3ccc(C(N)=O)cc3)ccc12 (stereo not given) | -4
COc1ccc(Cl)cc1C(=O)Nc1cccnc1Cl | -10
COc1ccccc1NC(=O)CN(Cc1ccco1)C(=O)c1ccc(N2CCCC2=O)cc1 | 1
CCN(C[C@H]1N[C@@](C)(C(=O)OC)[C@H]2C(=O)N(Cc3ccccc3)C(=O)[C@@H]12)S(=O)(=O)c1ccc(F)cc1 | -6
COc1ccc(NS(=O)(=O)c2ccc(NS(=O)(=O)c3cccs3)cc2)c(OC)c1 | -2
CC1CCCC(NC(=O)COC(=O)c2cccs2)C1C (stereo not given) | -2
CCOc1ccc(C(=O)N(CC)CC(=O)Nc2ccc3c(c2)OCCO3)cc1OCC | -3
CCC1CCCCN1C(=S)NC(=O)c1ccco1 (stereo not given) | 60
C/C(=N\NC(=O)c1cc(C)nc2ccccc12)c1ccccn1 | 95
COc1ccc(S(=O)(=O)N2CCN(Cc3cc(=O)n4ccccc4n3)CC2)cc1 | 4
OCC#CCSc1nnc(-c2cccc3ccccc23)o1 | 72
O=C(Nc1ccncc1)c1c(Cl)cccc1Cl | 1
C=CCC(C(=O)Oc1c(C(C)(C)C)cc(C)cc1C(C)(C)C)c1ccccc1 (stereo not given) | -3
COc1ccc(CC(=O)OCC(=O)NCC2CCCO2)cc1OC (stereo not given) | -8
O=C(COC(=O)CCc1ccccc1)NCc1ccccc1 | -4
CCOc1ccc(NS(=O)(=O)c2ccc(C(=O)N3CC(C)OC(C)C3)cc2)cc1 (stereo not given) | -3
c1ccc2c3n(nc2c1)CCCO3 | -7
COc1ccc(NC(=O)CN(C)C(=O)CNC(=O)c2sc3ccccc3c2Cl)cc1 | 62
O=C(c1ccncc1)N1CCN(S(=O)(=O)c2ccc(OC(F)(F)F)cc2)CC1 | 1
Cc1occc1-c1nnc(SCC(=O)N2CCCCC2C)o1 (stereo not given) | 2
CSc1ncccc1C(=O)Nc1cccc(S(=O)(=O)N2CCOCC2)c1 | -6
COc1ccc(C(CNC(=O)c2cc3c(s2)CCC(C)C3)N2CCOCC2)cc1 (stereo not given) | 3
Cc1ccc(C(=O)N2CC(=O)NC(=O)C2)cc1 | -8
COc1ccc([C@H]2CC(=O)C=C(c3cccc(Br)c3)C2)cc1OC | 7
C=CCC[C@@H](Cc1ccc(F)cc1)C(=O)OCCNC(=O)[C@@H](CC=C)CC(=O)N[C@@H](CO)Cc1ccccc1 | 7
O=C(O)c1ccccn1 | 2
COc1cc(OC)cc(OC(=O)C2CCN(C3=NS(=O)(=O)c4ccccc43)CC2)c1 | 0
COc1ccc(CCNC(=O)CN2C(=O)NC3(CCCCC3)C2=O)cc1 | 58
Next section:
SMILES | Mtb bLac sens
CCOc1ccc(S(=O)(=O)Nc2cccc(C(=O)N3CCN(c4ccccc4O)CC3)c2)cc1 | 2
Cc1ccc(NC(=O)CN(C)C(=O)COc2ccccc2-c2ccccc2)cc1 | -5
COc1ccc(-c2oc(=O)c3cc(OC)c(OC)cc3c2/C=C/c2ccc(F)cc2)cc1 | 62
C#CCOCCOCCOCCNc1nc(N2CCN(C(=O)[C@H](CCCN=C(N)N)n3cc(C(N)[C@@H](C)CC)nn3)CC2)nc(N2CCN(C(=O)[C@H](CC(N)=O)n3cc([C@@H](N)C(C)C)nn3)CC2)n1 (stereo not given in full) | 8
Cc1c(C(=O)NC(=S)N(Cc2ccccc2)c2ccccn2)cccc1[N+](=O)[O-] | 0
CCOc1ccc(NC(=O)CSc2nnnn2C2CCCC2)cc1 | 99
O=C(COC(=O)c1ccc2ncsc2c1)NCc1ccc(Cl)cc1 | 39
CC(C)[C@H](NC(=O)c1ccccc1F)C(=O)OCC(=O)NC1CC1 | 2
C=CCn1c(SC(C)C(=O)NCC2CCCO2)nnc1-c1ccc(OC)cc1 (stereo not given) | -2
COc1cccc(C(=O)OCC(=O)c2ccc(Br)s2)c1OC | 95
O=C(CSc1ccc([N+](=O)[O-])cc1)OCC(=O)N1CCCC1=O | -7
O=C(CN(C(=O)CCC(=O)Nc1ccccn1)C1CCCC1)NCc1ccccc1 | -2
O=C(Oc1ccccc1C(=S)N1CCOCC1)c1ccccc1 | 0
O=C(Cc1ccc(S(=O)(=O)N2CCCCC2)cc1)NCc1ccc(Cl)cc1 | 1
CCC(C)N(C(=O)CN1C(=O)NC2(CCc3ccccc32)C1=O)C1CCS(=O)(=O)C1 (stereo not given) | -4
CCCCn1c(N)c(N(CCC(C)C)C(=O)c2ccc(-c3ccc([N+](=O)[O-])cc3)o2)c(=O)[nH]c1=O | -2
CSCCC(NC(=O)c1ccccc1)C(=O)NNC(=O)c1ccccc1 (stereo not given) | -9
O=C(C[C@@H]1C/C=C\C[C@H](Cc2ccc(F)cc2)C(=O)OC[C@@H](Cc2c[nH]c3ccccc23)NC1=O)NCCO | -6
CC(COc1ccc(/C=C/c2ccccc2)cc1)[N+](C)(C)C (stereo not given) | -1
Cc1ccc(C(=O)N/C(=C\c2cccc([N+](=O)[O-])c2)C(=O)NC(Cc2ccccc2)C(=O)O)cc1 (stereo not given) | ?
COc1ccc(C(=O)NNC(=O)CSc2nnc3ccccn23)cc1OC | 0
O=C(CSc1nnc(C2CC2)n1C1CC1)c1ccc(Br)s1 | -3
CCNC(=O)NC(=O)CSc1ccc(S(=O)(=O)N2CCCCC2)cn1 | 4
COc1ccc(CNC(=O)CN(C(=O)c2csnn2)c2ccc3c(c2)OCCO3)cc1 | -23
CCn1cnc2c(Nc3cc(F)cc(F)c3)nc(C#N)nc21 | -11
C=CCC[C@@H](Cc1ccc(F)cc1)C(=O)OC[C@@H]1CCCN1C(=O)[C@@H](CC=C)CC(=O)N(CCO)Cc1ccccc1 | -8
COc1ccc2c(c1)OC[C@H]1[C@H]2N2C(=O)CN(CC3CCCO3)C(=O)[C@@]2(C)[C@H]1c1ccccc1 (stereo not given in full) | 3
CC1CC(C)CN(C(=O)COC(=O)c2ccc([N+](=O)[O-])o2)C1 (stereo not given) | 92
COc1ccc(CCCCCCOCc2ccccc2)cc1 | 11
CC(C)C(NC(=O)c1ccc(Cl)c([N+](=O)[O-])c1)C(=O)NCc1ccccn1 (stereo not given) | -2
Cc1ccc(N2C(=O)C3C4CCC(O4)C3C2=O)c(OC(F)F)c1 (stereo not given) | -2
Cc1ccc(CNC(=O)COC(=O)CN2C(=O)C3CC=CCC3C2=O)cc1 (stereo not given) | 1
COc1ccc(C(=O)O)cc1S(=O)(=O)NCc1ccncc1 | 3
COc1ccccc1NS(=O)(=O)c1cc(NC(=O)Cc2n[nH]c(=O)c3ccccc23)ccc1Cl | 1
CC#CCN(Cc1ccco1)C(=O)C1CCC(=O)N(Cc2ccccc2F)C1 (stereo not given) | -1
Cc1cc(C(=O)OCC(=O)N2CC(C)OC(C)C2)c(C)n1-c1ccccc1 (stereo not given) | 0
CC(=O)c1c(C)[nH]c(C(=O)C(C)Sc2nnc(NC3CC3)s2)c1C (stereo not given) | -5
COc1cc(C(=O)OCC(=O)Nc2ccccc2C(=O)NC2CC2)c([N+](=O)[O-])cc1OC | -3
Cc1cc(NC(=O)Cn2c(=O)oc3ccccc32)no1 | -7
CC1CCCC(C)N1C(=O)COC(=O)c1ccc(S(=O)(=O)N(C)c2ccccc2)cc1 (stereo not given) | 48
CC(C)n1nc(C(=O)Nc2ccc(-n3cnnn3)cc2)c2ccccc2c1=O | -3
COc1ccc(S(=O)(=O)NCCN2CCOCC2)c(C)c1C | -6
COc1ccc([C@H]2CC(=O)C=C(c3ccc(OC)nc3)C2)cc1 | -1
O=C(c1ncn(Cc2ccccc2)c1C(=O)N1CCN(c2ccccc2)CC1)N1CCN(c2ccccc2)CC1 | -3
O=C(CN(Cc1ccccc1)C(=O)CCl)c1cccc(Br)c1 | 99
COC(=O)Nc1ccc(S(=O)(=O)N2CCCC(C(=O)NCC3CCCO3)C2)cc1 (stereo not given) | 3
Cc1ccccc1CN(C)C(=O)[C@H](Cc1ccccc1)NC(=O)c1ccco1 | -5
Cc1ccc(N(C)S(=O)(=O)c2cccc(C(=O)N3CCN(Cc4ccccc4)CC3)c2)cc1 | -8
C[C@@H](C(=O)Nc1nccs1)N1C(=O)C2CC=CCC2C1=O (stereo not given in full) | -7
COc1cccc(C(=O)N(Cc2ccco2)c2c(N)n(Cc3ccccc3)c(=O)[nH]c2=O)c1 | -2
COc1ccc(-c2sc3cc4c(cc3c2C#CCO)OCO4)cc1 | 63
N#Cc1c(-c2ccccc2)cc(-c2ccc(O)cc2)nc1N | 42
COC(=O)C1=C(c2ccc(F)cc2F)C[C@@H]2CC[C@H]1N2C(=O)NCCOc1ccccc1Cl | 1
O=C(CN1C(=O)NC2(CCCC2)C1=O)NCCc1ccc(F)cc1 | 2
Cn1c(N)c(C(=O)CSc2nnc(C3CC3)n2N)c(=O)n(C)c1=O | -2
Cc1cc(C(=O)NN=Cc2ccc(-c3ccc(F)cc3)o2)c(C)o1 | 3

An excerpt; the hit share may differ from the screen's.
